Bioassay records from PubChem.
D2 PAM = human D2 receptor positive allosteric modulation. P14416. DiscoveRx D2 beta-arrestin cells, luminescence, 90 min; 100% = 57 uM dopamine signal. potentiation, % (concentration not given with the values). 0.23% of 360,000 active; active = potentiation of 50% or more; inconclusive = 30% to 50%; inactive = 30% or less;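 further: compound concentration not given in the record; tested on top of an EC20 dose of dopamine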
Target sequence (P14416 whole entry, looked up): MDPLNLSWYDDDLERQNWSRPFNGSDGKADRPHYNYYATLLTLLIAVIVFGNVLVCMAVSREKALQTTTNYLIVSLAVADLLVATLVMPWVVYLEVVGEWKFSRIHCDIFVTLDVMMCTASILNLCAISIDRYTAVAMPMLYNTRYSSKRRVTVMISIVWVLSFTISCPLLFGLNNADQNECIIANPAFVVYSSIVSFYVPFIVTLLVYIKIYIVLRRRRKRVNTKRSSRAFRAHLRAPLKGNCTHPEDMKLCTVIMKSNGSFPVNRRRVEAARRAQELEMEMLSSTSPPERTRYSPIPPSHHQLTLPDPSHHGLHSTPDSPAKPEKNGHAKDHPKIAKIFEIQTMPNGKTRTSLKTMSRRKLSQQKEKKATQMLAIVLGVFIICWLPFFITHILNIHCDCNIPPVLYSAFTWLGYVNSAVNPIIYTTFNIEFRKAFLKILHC
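PathHunter beta-arrestin assay in DiscoveRx D2 cells. Compounds were added with an EC20 of dopamine (50 nM final) for 90 min at 37 deg C. Luminescence was read 1 h after detection reagent, with 57 uM dopamine as the EC100 control.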
D2 ag = activates the human D2 dopamine receptor; P14416; DiscoveRx PathHunter D2 beta-arrestin, luminescence, 90 min; 100% = 57 uM dopamine signal; activation, % (no concentration beside the values); 0.084% of 360,000 active; AID 624465; in the data active = activation above about 40%; inconclusive = about 15% to 40%; inactive = below about 15%; further: compound concentration not given in the record; the text of the record calls up to 30% inactive
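Agonist mode: compounds alone added to overnight-plated D2 PathHunter cells for 90 min at 37 C, with 57 uM final dopamine (EC100) defining full response. Beta-arrestin recruitment detected by chemiluminescent reagent, read after 1 h at ambient temperature.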
Six1-Eya2 blk = blocks human Six1 binding to Eya2 | 0.56% of 360,000 active | Q15475+O00167 | AlphaScreen GST-Six1/His-Eya2 binding, biochemical; active compounds read low; control for the full effect not named in the record | activity change, % (test concentration not listed); in the data active = activity change below about -65%; inconclusive = about -30% to -65%; inactive = above about -30%; further: on the % scale 0 is the no-effect control and ±100 the full control effect
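AlphaScreen with GST-Six1 and His-Eya2 (5X mix: 250 nM and 500 nM), glutathione donor and nickel acceptor beads; buffer 50 mM Tris pH 8.0, 300 mM NaCl, 1 mM TCEP; 1 h at 37 C in the dark.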
CtBP-E1A inh = blocks the CtBP interaction with E1A; AID 651724; activity change, % (no concentration beside the values); 0.49% of 340,000 active; AlphaScreen GST-E1A/His-CtBP binding, 1536-well; active compounds read low; control for the full effect not named in the record; in the data active means activity change below about -65%; inconclusive means about -30% to -65%; inactive means above about -30%; further: on the % scale 0 is the no-effect control and ±100 the full control effect
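Homogeneous bead-based format: GST-tagged E1A captured on glutathione donor beads, His-tagged CtBP on nickel acceptor beads; compounds precede bead addition by 2 h at 37 °C.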
PINK1 expr mod = modulators of PINK1 expression | 0.2% of 410,000 active | PINK1 immunofluorescence, high-content cytometry, 24 h | Potency, µM (titrated, usually from 76.6 µM), inactives show top-dose activation (PINK1 increase), most hits filed as activators; active = well fitted activation curve with a large enough effect; inconclusive = small, poorly fitted or top-dose-only effect; inactive = flat fitted curve, though single readings scatter; cell line not stated here;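 further: potency means the concentration at half of the fitted maximal effect; % of control where 0% means no effect; nearly all actives have a fitted effect of over 65% in size; a mitochondrial uncoupler was the plate control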
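A stable cell line was treated with compounds at 5 concentrations for 24 hours, with CCCP as control. PINK1 levels and mitochondrial localization were measured by immunofluorescence with mitochondrial, cell and nuclear markers after fixation, read by laser-scanning cytometry.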
TRPML1 ag = agonists of human TRPML1 channel; activation, % (concentration not given with the values); Q9GZU1; AID 624414; 0.12% of 410,000 active; TRPML1-expressing cells, Ca2+ dye fluorescence, FDSS; host cell line not named in the record; reference of the full effect not given here; in the data active = activation above about 50%; inconclusive = about 30% to 50%; inactive = below about 30%; further: 0% is about no effect; the text of the record puts the active cut at 80%
Target sequence (Q9GZU1 whole entry, looked up): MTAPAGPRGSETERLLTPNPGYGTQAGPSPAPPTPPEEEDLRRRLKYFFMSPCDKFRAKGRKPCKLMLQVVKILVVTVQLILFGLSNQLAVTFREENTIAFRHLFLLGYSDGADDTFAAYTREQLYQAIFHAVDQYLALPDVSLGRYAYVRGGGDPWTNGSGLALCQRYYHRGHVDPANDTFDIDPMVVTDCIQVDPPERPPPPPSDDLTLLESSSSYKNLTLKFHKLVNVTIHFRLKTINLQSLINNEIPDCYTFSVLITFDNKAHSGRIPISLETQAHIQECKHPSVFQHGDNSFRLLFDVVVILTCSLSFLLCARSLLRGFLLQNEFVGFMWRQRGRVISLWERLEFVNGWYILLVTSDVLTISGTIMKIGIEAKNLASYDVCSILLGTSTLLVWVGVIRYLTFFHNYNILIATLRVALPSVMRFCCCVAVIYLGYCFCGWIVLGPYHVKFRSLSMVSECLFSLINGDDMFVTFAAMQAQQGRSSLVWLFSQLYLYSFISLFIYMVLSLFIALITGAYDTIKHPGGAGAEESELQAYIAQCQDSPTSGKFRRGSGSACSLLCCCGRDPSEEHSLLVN
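Tetracycline-induced TRPML1-DL cells are seeded and incubated overnight before loading with a no-wash Ca2+ dye and quencher. Agonist activity is taken from the 110 s fluorescence read following compound pin-transfer on an FDSS, before EC80 54-4 challenge.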
Starred values were filed as active, the others as inactive; ? = inconclusive; . = not tested or not shown; & = joins results of further samples; [ ] = another dose, or the depositor's remark.

Values in the order – TRPML1 ag	D2 ag	Six1-Eya2 blk	PINK1 expr mod	CtBP-E1A inh	D2 PAM
CCOc1ccc(OCCC(=O)OCC(=O)NC2CCCC2)cc1
→ -0.9	-3.8	-2	-0.3%	.	0
Cc1ccc(C)n1-n1c(C)nc2sc(-c3ccccc3)cc2c1=O
→ 0.1	-1.8	?	-0.7%	-17	-2
CCN1CCC(NCCc2ccc(F)cc2)CC1
→ 0.5	-5.8	4	-1.2%	9	-4
COc1ccc(CNc2ccc(C)c(C)c2)cc1
→ 0.1	2.7	-1	0.0%	0	-3
COc1ccc(CCNC(N)=S)cc1OC
→ 0.4	-6.3	6	2.1%	10	-9
CC(C)CCn1c(-c2nonc2N)nc2ccccc21
→ 9.7	-0.3	4	1.0%	1	-17
CC(C)OC(=O)CSc1n[nH]c(-c2cccnc2)n1
→ 0.9	-2.4	8	-1.3%	-3	8
CCOC(=O)c1c(C)[nH]c(C)c1C=O
→ -0.1	-0.7	-2	-1.9%	0	-2
CC(=O)c1ccc(OCC(O)CN(C)Cc2cccs2)cc1 (configuration not stated)
→ -0.1	0.9	6	-0.7%	-3	2
CNc1cncc(-c2ccc(O)cc2)n1
→ -0.6	1.5	-18	-0.2%	-4	2
CCOP(=O)(OCC)c1nc(-c2cccc3ccccc23)oc1NCCc1ccc(OC)cc1
→ 2.4	2.7	47	9.3%	4	4
CN1CCc2c(sc(N)c2C(=O)c2ccc(Cl)cc2)C1
→ 0.0	8.6	-6	1.0%	-1	-20
CN(C)S(=O)(=O)c1ccc(N2CCCC2)c(C(=O)Nc2ccc(N3CCOCC3)cc2)c1
→ 0.8	-0.4	-1	-1.1%	-2	5
COc1nc(N)nc(NC(=O)c2cccs2)c1N=O
→ 0.6	-4.2	-6	5.9%	-12	5
CCOC(=O)c1sc(NC(=S)NC(=O)c2ccccc2Cl)c(C(=O)OCC)c1C
→ 0.2	-0.7	-1	3.0%	3	-6

Some entries already given, showing only Six1-Eya2 blk and D2 PAM:
| mol | Six1-Eya2 blk | D2 PAM |
| --- | --- | --- |
| CN1CCc2c(sc(N)c2C(=O)c2ccc(Cl)cc2)C1 | -6 | -20 |
| CN(C)S(=O)(=O)c1ccc(N2CCCC2)c(C(=O)Nc2ccc(N3CCOCC3)cc2)c1 | -1 | 5 |
| COc1nc(N)nc(NC(=O)c2cccs2)c1N=O | -6 | 5 |
| CCOC(=O)c1sc(NC(=S)NC(=O)c2ccccc2Cl)c(C(=O)OCC)c1C | -1 | -6 |

Following part:
Values in the order – TRPML1 ag	D2 ag	Six1-Eya2 blk	PINK1 expr mod	CtBP-E1A inh	D2 PAM
CCn1c(C)nc2cc(C(=O)NNC(=S)Nc3ccc(Cl)cc3Cl)ccc21
→ 0.3	-6.9	-12	0.1%	-23	-15
CCCCCCCCNCCS(=O)(=O)NCc1ccccc1OC
→ -0.8	-0.3	0	-1.5%	4	-17
C=CCc1ccc(OCCOCCOc2ccccc2[N+](=O)[O-])c(OC)c1
→ -0.2	0.3	-5	1.4%	7	2
CSc1ccccc1C(=O)NCCc1ccc(S(=O)(=O)N2CCCCC2)cc1
→ 0.9	-1.6	2	9.2%[38.3 µM]	2	-10
O=C(c1ccccc1F)N1CCN(c2ccc([N+](=O)[O-])c3cccnc23)CC1
→ 0.0	-3.9	-4	0.8%	-9	4
Cc1ccc(C(=O)NC(=S)NNC(=O)c2ccc([N+](=O)[O-])cc2)cc1
→ 23	-2.3	8	1.3%	-11	-2
COc1cc(OC)cc(-c2c(-c3cccs3)c3cc(Br)ccc3n2C)c1
→ 0.1	-0.3	6	1.2%	3	3
CC(CC(=O)C1C(C)C=CCC1(C)C)NNC(N)=O (configuration not stated)
→ 0.2	2.2	6	-2.6%	2	6
Cc1ccc(N(CC(=O)NC2CCCC2)C(=O)CNC(=O)c2cccs2)cc1C
→ -0.6	0.6	1	-3.2%	-1	-7
S=C(NCC1CCCO1)Nc1cccc(Cl)c1 (configuration not stated)
→ -0.3	-1.6	3	2.2%	10	-32
CC(NC(=O)c1cc(COc2ccc3ncccc3c2)on1)c1ccc(F)cc1 (configuration not stated)
→ 1.2	-1.0	1	-0.2%	5	-7
COc1ccc(S(=O)(=O)NCC2CCCO2)c(Cl)c1Cl (configuration not stated)
→ -0.8	-0.2	4	2.3%	-1	-22
CCOc1ccc(-n2cc(C(=O)N3CCCCCC3)c3cc(OC)c(OC)cc3c2=O)cc1
→ 4.4	-2.5	23	-0.5%	0	-7
CCOc1ccccc1NC(=O)C1CCC(CNc2c(N3CCCCC3)c(=O)c2=O)CC1 (configuration not stated)
→ -0.3	-6.9	-5	-0.4%	.	-17
OC1CC2CCC(C1)N2CCCN1c2ccccc2Sc2ccc(Cl)cc21 (configuration not stated)
→ 2.1	-0.2	-10	-4.6%	-17	-14
CCc1ccc(C(=O)CSc2nc3ccccc3c(=O)[nH]2)cc1
→ -0.7	2.2	-3	-1.9%	-3	-10
O=C(c1cccc(C(F)(F)F)c1)C1CCCN(C(=O)CCCn2cncn2)C1 (configuration not stated)
→ -0.6	-4.2	2	0.9%	6	-8
Cc1cc(C)n(S(=O)(=O)/C=C/c2ccccc2)n1
→ -0.3	1.4	5	16%[38.3 µM]	16	0
CC12CCC(=O)N1C(C(=O)Nc1nnc(SCc3ccccc3)s1)CS2 (configuration not stated)
→ 0.0	-2.1	0	-1.5%	-15	-6
N#Cc1ccc(CN2CCN(C(=O)c3cc(C4CC4)nn3-c3ccccc3)CC2)cc1
→ -1.8	-2.9	28	2.7%	.	-26
CCCCCC(=O)NC(=S)Nc1ccc(N2CCCCC2)c(Cl)c1
→ 2.8	-1.9	0	0.1%	-5	-2
O=C(N/N=C/c1cccs1)c1ccc(NC(=O)c2ccccc2Cl)cc1
→ 1.1	-2.0	25	2.0%	2	-11
COc1ccc(/C=C/C(=O)NC(C)CCc2ccccc2)cc1 (configuration not stated)
→ 4.9	-0.3	2	3.2%	0	-3
CS(=O)(=O)N(CC(=O)NCC1CCCO1)c1cc(Cl)ccc1Cl (configuration not stated)
→ -0.9	0.4	11	2.8%	2	6
CC(C)(C)N1C(=O)c2ccccc2NC(=O)N1Cc1ccccc1
→ -0.7	-1.5	0	1.6%	5	9
CCOC(=O)c1cn(-c2nc(-c3ccc(Cl)c(Cl)c3)cs2)c2c(F)c(N3CCOCC3)c(F)cc2c1=O
→ 0.4	-4.0	2	4.9%	1	-15
CCC(C(=O)OCC(=O)Nc1ccccc1-c1ccccc1)c1ccccc1 (configuration not stated)
→ 1.7	-1.8	20	9.4%	3	-4
OCCN(CCO)CC(O)COc1ccc(Br)cc1 (configuration not stated)
→ -0.5&-0.6	-3.5&3.6	7&-1	3.6%&3.0%	.	-14&-17
NC(=NCCc1ccccc1)c1cccc([N+](=O)[O-])c1
→ 0.4	-6.1	0	-0.8%	-6	-6
Oc1ccccc1/C=N/Nc1nccnc1Cl
→ 2.3	-1.9	-92*	0.2%	-94*	-1

2 entries from above, with each value named.
canonical_smiles: CNc1cncc(-c2ccc(O)cc2)n1
  TRPML1 ag = -0.6 | D2 ag = 1.5 | Six1-Eya2 blk = -18 | PINK1 expr mod = -0.2% | CtBP-E1A inh = -4 | D2 PAM = 2
canonical_smiles: CCOP(=O)(OCC)c1nc(-c2cccc3ccccc23)oc1NCCc1ccc(OC)cc1
  TRPML1 ag = 2.4 | D2 ag = 2.7 | Six1-Eya2 blk = 47 | PINK1 expr mod = 9.3% | CtBP-E1A inh = 4 | D2 PAM = 4

(listing goes on)
Values in the order – TRPML1 ag	D2 ag	Six1-Eya2 blk	PINK1 expr mod	CtBP-E1A inh	D2 PAM
Cc1ccc(CNC(=O)CCS(=O)(=O)c2ccc3c(c2)CC(C)N3C(=O)C2CC2)o1 (configuration not stated)
→ -0.4	-3.2	0	9.9%	.	-6
Cc1cc(N/N=C/c2ccccc2Cl)nc(NCc2ccccc2)n1
→ -0.1	1.7	-15	?	-9	-1
O=S(=O)(Cc1cc(-c2ccccc2)no1)c1ccccc1
→ 1.2	0.6	3	-0.2%	0	-5
CCOc1ccc(N(CC(=O)NCC2CCCO2)S(=O)(=O)c2ccc(OC)c(OC)c2)cc1 (configuration not stated)
→ -0.7	-3.7	1	2.5%	5	5
COc1ccc(OC)c(C2CC(c3ccc(NS(C)(=O)=O)cc3)=NN2C(=O)c2ccccc2)c1 (configuration not stated)
→ 5.4	-4.6	-13	2.1%	0	-2
CCNc1c(NS(=O)(=O)c2ccc(Cl)s2)c(=O)oc2ccccc12
→ 1.1	2.3	0	-1.1%	-1	-1
CCOC(=O)C1=CCN(S(=O)(=O)c2ccccc2Br)C1c1ccc(F)cc1 (configuration not stated)
→ 7.6	-5.6	4	0.0%	6	-5
CCCOc1cccc(C(=O)NC(=S)Nc2cccc(C(F)(F)F)c2)c1
→ 1.1	-3.2	3	3.8%[38.3 µM]	7	-10
O=C(OCC(=O)N1CCCc2ccccc21)c1cncc(Br)c1
→ 1.0	-1.5	-2	0.9%	3	1
CCn1cc(CN2CCC(n3nccc3NC(=O)C(OC)c3ccccc3)CC2)cn1 (configuration not stated)
→ 0.2	-0.8	-1	-0.1%	9	3
CCCCN(CCCC)CCNC(=O)c1ccc2nc(-c3ccccc3NC(C)=O)c(=O)[nH]c2c1
→ 0.3	3.1	0	0.5%	.	-7
O=C(/C=C/c1cccc([N+](=O)[O-])c1)NC1CC2CCC1C2 (configuration not stated)
→ -0.4	-0.7	3	-0.4%	-1	-21
N#C/C(=C\c1ccccc1)C(=O)NCc1ccc(F)cc1
→ 0.0	4.3	10	0.2%	11	0
COC(=O)C1=C(C)N=C2SCCC(=O)N2C1/C=C/c1ccccc1 (configuration not stated)
→ 2.1	-4.5	-1	-1.8%	4	-10
O=C(COC(=O)Cn1nnc(-c2ccccc2)n1)Nc1ccccc1Br
→ -0.6	3.5	3	0.5%	7	-4
Cc1ccc(OCCCC(=O)NC(C)c2ccccc2)c(C)c1 (configuration not stated)
→ 0.2	-3.3	3	0.4%	3	-20
O=C(CSc1ccc([N+](=O)[O-])cn1)Nc1ccc(N2CCOCC2)c(Cl)c1
→ -0.5	-1.8	-2	4.2%	-19	-8
CCOc1ccc(NC(=O)CCCn2nc(C)c3c(C)n(-c4ccccc4)nc3c2=O)cc1
→ 1.1	-2.1	0	0.8%	1	-7
Cc1ccc(C(=O)N2CCCC(CCC(=O)N3CCN(c4ccccn4)CC3)C2)cn1 (configuration not stated)
→ 0.1	-4.8	1	2.6%	10	75*
COc1ccc(-c2noc(CCC(=O)NC3CCCC3)n2)cc1
→ 1.9	2.8	5	-1.4%	0	-2
O=C1c2cccc3c([N+](=O)[O-])ccc(c23)C(=O)N1Cc1cccnc1
→ 6.8	?	-17	7.0%	0	?
Cc1ccc(CCNC(=O)C2CCC(=O)N(Cc3cccc(F)c3)C2)cc1 (configuration not stated)
→ 0.5	-4.3	-4	-2.5%	-10	-9
N#Cc1c(NC(=O)CCCl)sc2c1CCCCC2
→ -0.4	-1.0	9	8.6%	-6	-7
O=C(c1ccc(S(=O)(=O)Nc2cccc(C(F)(F)F)c2)cc1)N1CCOCC1
→ -0.5	3.5	1	4.3%	3	-3
CCN1C(=NCCc2c[nH]c3ccccc23)N[C@@H](c2ccccc2)[C@H](C(=O)OC)[C@H]1C
→ -0.6	1.3	-2	-0.1%	-12	-14
CCN(Cc1ccccc1)C(=O)c1ccc(NC(=O)c2ccc(OC)cc2)cc1
→ 2.6	-1.2	-4	-0.6%	-4	-7
